NPR1 antag = Natriuretic polypeptide receptor (hNpr1) antagonism - Primary qHTS. Atrial natriuretic peptide receptor 1 (Homo sapiens), P16066. HEK293 hNpr1 GloSensor cGMP, ANP-stimulated luminescence. Potency, µM (titrated, usually from 46.3 µM), for the others: at the highest dose activity change, negative = inhibition, usual class: inhibitors. actives 1.6% (n = 76,000). AID 1347048, 2019; active = well fitted inhibition curve with a large enough effect; inconclusive = small, poorly fitted or top-dose-only effect; inactive = no such curve, though single readings can be large or run the other way;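 note: nearly all actives have a fitted effect of over 60% in size; nearly all hits also lower the signal before the agonist is added; a reference antagonist and vehicle were the controls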
Target sequence (P16066 whole entry, looked up): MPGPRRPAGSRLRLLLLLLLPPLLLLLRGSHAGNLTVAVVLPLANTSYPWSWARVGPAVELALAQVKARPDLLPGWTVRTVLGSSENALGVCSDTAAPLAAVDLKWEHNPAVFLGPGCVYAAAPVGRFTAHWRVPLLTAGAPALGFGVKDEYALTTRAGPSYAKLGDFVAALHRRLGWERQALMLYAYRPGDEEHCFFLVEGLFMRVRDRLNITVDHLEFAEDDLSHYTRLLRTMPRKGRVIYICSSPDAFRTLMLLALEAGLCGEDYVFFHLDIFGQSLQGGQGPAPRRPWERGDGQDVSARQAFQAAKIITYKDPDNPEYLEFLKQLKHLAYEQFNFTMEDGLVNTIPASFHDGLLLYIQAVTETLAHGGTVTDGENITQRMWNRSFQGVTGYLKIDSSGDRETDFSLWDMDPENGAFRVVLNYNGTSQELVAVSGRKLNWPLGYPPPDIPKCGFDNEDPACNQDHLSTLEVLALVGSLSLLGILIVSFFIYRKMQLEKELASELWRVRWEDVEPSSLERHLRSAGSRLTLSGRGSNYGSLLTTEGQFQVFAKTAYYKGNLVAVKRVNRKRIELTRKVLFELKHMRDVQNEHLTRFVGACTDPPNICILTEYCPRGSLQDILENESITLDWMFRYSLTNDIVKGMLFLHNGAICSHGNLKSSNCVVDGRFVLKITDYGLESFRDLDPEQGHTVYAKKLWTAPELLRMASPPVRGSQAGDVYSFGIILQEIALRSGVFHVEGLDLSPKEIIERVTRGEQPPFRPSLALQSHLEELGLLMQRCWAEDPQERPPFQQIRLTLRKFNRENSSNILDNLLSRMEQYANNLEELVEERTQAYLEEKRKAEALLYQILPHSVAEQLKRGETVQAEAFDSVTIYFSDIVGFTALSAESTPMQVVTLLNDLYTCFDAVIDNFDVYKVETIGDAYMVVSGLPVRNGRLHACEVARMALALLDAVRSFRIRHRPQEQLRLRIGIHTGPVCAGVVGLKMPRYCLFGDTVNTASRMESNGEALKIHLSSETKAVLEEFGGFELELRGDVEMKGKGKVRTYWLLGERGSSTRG
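Compound pre-incubated 30 min at room temperature on GloSensor-loaded HEK293 cells stably carrying hNpr1 and the pGS-40F cGMP biosensor. Stimulation uses hNppA at 0.1 nM final; luminescence is taken at baseline and 20 min post-agonist.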
Active calls of the source: *; ? = inconclusive; & = joins results of further samples; [ ] = dose if it differs, or a comment. % is set by controls: 0 for no effect and ±100 for the full control effect; potency is the fitted concentration of half-maximal effect. The list is partial; count on the stated rates, not on these rows.

Start of the data: the first three entries (preview)
SMILES	NPR1 antag
CC(C)(C(=O)O)c1cnc(N2CCN(CCO)CC2)nc1N1CCOCC1	1%
CN1C[C@@H](NC(=O)C2CC2)C[C@H]1c1nc(-c2ccncc2)no1	1%[70.6 µM]
COC1CCN(C(=O)c2cnc3c(c2)N(C(=O)Cc2cn(C)c4ccccc24)CCC3)CC1	-2%

Main list, repeating the preview:
SMILES	NPR1 antag
CC(C)(C(=O)O)c1cnc(N2CCN(CCO)CC2)nc1N1CCOCC1	1%
CN1C[C@@H](NC(=O)C2CC2)C[C@H]1c1nc(-c2ccncc2)no1	1%[70.6 µM]
COC1CCN(C(=O)c2cnc3c(c2)N(C(=O)Cc2cn(C)c4ccccc24)CCC3)CC1	-2%
Cc1cn2nc(C(=O)N3CCCCC3)cc2c(N(C)Cc2ccccc2)n1	-3%
CCc1noc(-c2ccn3c(CNC(=O)c4ccc(OC)c(F)c4)nnc3c2)n1	14%
Cc1noc([C@@H]2CN(C(=O)CCc3nc4ccccc4[nH]3)C[C@H]2C(N)=O)n1	4%
c1ccc(-c2noc(-c3ccn4c(CN5CCN(c6ccccn6)CC5)nnc4c3)n2)cc1	1%
Cc1cc(C(=O)NCC2(COc3ccccc3)C[C@@H](O)[C@@H](O)C2)no1 (some centres not stated)	-2%[70.6 µM]
O=C(Nc1ccc(C2(C(=O)NCc3ccc(F)c(Cl)c3)CCC2)cc1)C1CC1	-17%
COCCN1C(=O)CS(=O)(=O)C12CCN(C(=O)c1ccc(C)c(F)c1)CC2	5%
CCc1nc(-c2c3n(c(=O)n(CC(=O)NC(C)(C)C)c2=O)CCCC3)no1	14%
COCC(=O)NC[C@@H]1C=C(C)[C@H](Cc2nnc(-c3cncn3C)o2)C[C@H]1C(C)C	-4%[70.6 µM]
Cc1ccc(NC(=O)N2CCCC(c3nc(-c4cccnc4)no3)CCNC(=O)CC2)cc1C (configuration not stated)	-2%
O=C(c1ccoc1)N1CCC[C@H](n2c(=O)n(Cc3ccccc3)c3cccnc32)C1	-9%
CNC(=O)[C@@H]1CN(Cc2cc(C(F)(F)F)ccc2Cl)C[C@H]1CO	-12%
COc1cc(-c2[nH]ncc2CN2CCN(c3ccc(Cl)cn3)CC2)cc(OC)c1OC	0%
CC1CCC2(CC1)NC(=O)N(CC(=O)Nc1cc(F)cc(F)c1)C2=O (configuration not stated)	2%
OC[C@@H]1CNC[C@H]1C1CCN(Cc2ccncc2)CC1	5%
Cc1ccc(CNC(=O)c2ccc3c(c2)CN(Cc2ccc(O)c(F)c2)CCO3)cc1	-28%
COc1cccc(C(=O)N2CCCC(n3cc(-c4nc(-c5ccccc5)no4)nn3)C2)c1 (configuration not stated)	?
Cc1ccc(NC(=O)c2cc(-c3ccc[nH]3)n[nH]2)cc1C	3%
O=C(COc1ccc(F)cc1)N1CCCC(c2noc(COc3ccccc3)n2)C1 (configuration not stated)	?
COc1ccc(NC(=O)c2cc3n(n2)CC(c2ccc(Cl)cc2)OC3)c(OC)c1 (configuration not stated)	-14%
Cc1nc(C(=O)N2CCCC(c3nnc(Cn4ccnc4)n3C)C2)cs1 (configuration not stated)	2%
CCOc1ccccc1C(=O)N1CCN(c2cc(-c3cccs3)[nH]n2)CC1	-23%
Cn1cc(C#N)cc1C(=O)N1CCC2(CCC(=O)N(CCc3cnc[nH]3)C2)CC1	3%
O=C(c1cscn1)N1CC[C@@H]2[C@@H](CCC(=O)N2CCc2ccccn2)C1	6%
Cc1ccc2nc(CO[C@H]3CN(C4CCOCC4)C[C@H]3F)[nH]c2c1	-1%[70.6 µM]
COc1ccc(CNC(=O)N2CCOCC2CC(=O)N2CCCC2)cc1 (configuration not stated)	0%
CNC(=O)N1CCc2nc(N3CCOCC3)[nH]c(=O)c2CC1	-1%
COc1ccc(C(=O)Nc2ccc([C@H]3OCC(=O)N[C@@H]3CO)cc2)cc1OC	-1%[70.6 µM]
COc1cc(CN2CC[C@@H]3CN(S(C)(=O)=O)[C@@H]3C2)ccc1F	1%
COc1ccc(NC(=O)CC2CCCCN(C)C2=O)cc1OC (configuration not stated)	5%
O=S(=O)(c1cccs1)N1CCC(OC2CCN(Cc3ccccc3)CC2)CC1	4%
CC(C)C(=O)N1CCN(c2nc3c(s2)CC(C(=O)NCc2ccco2)CC3)CC1 (configuration not stated)	-6%
COC(=O)C1=C(C)N=C2SC=C(CC(=O)N3CCCC3)N2C1c1ccc(C)cc1C (configuration not stated)	?
CCOc1ccccc1C(=O)NC1CCN(c2cc(-c3ccc(Cl)cc3)[nH]n2)CC1	-22%
CC[C@H]1CN(C(=O)c2ccc(F)cc2)CC[C@H]1CC(=O)N1CCC(C(=O)OC)CC1	1%[70.6 µM]
Cc1noc2c(NC3CCCCC3)cc(-c3ccsc3)nc12	4%[70.6 µM]
CCNC(=O)[C@@H]1C[C@H](NC(=O)Cc2cccc(F)c2F)CN1C1CCCC1	4%

A run of entries from the list above:
SMILES	NPR1 antag
Cc1noc2c(NC3CCCCC3)cc(-c3ccsc3)nc12	4%[70.6 µM]
CCNC(=O)[C@@H]1C[C@H](NC(=O)Cc2cccc(F)c2F)CN1C1CCCC1	4%

(listing goes on)
SMILES	NPR1 antag
C[S+](=O)([O-])CCn1ncc2cc(OCC3CCN(Cc4ccccc4)CC3)ccc21	6%[70.6 µM]
O=[S+]([O-])(Nc1ccccc1)c1ccc2c(c1)OCCN(Cc1cscn1)C2	-11%[70.6 µM]
O=c1[nH]c(C2CCCN(Cc3ccc(-c4cc(F)cc(F)c4)cc3)C2)nc2ccc(F)cc12 (configuration not stated)	-26%
COCCNc1ncc(-c2ccccc2)c2c1OCC2	-4%[70.6 µM]
O=C(CC1=C2CCCCC2N(Cc2ccc(F)cc2)C1=O)NC1CC1 (configuration not stated)	0%
COc1ccccc1-c1nc(N2CCOCC2)cc2c1CN(c1ccccc1)C2=O	2%[70.6 µM]
COc1ccc(C)cc1NC(=O)c1cnc(-c2ccc(F)cc2)nc1-c1ccncc1	?
Oc1ccccc1CN1CC(CNc2cccnc2)C2(C1)CN(c1ccccc1)C2 (configuration not stated)	-23%[70.6 µM]
CN1CC(=O)N2CCN(C(=O)NC34CC5CC(CC(C5)C3)C4)CC2C1=O (configuration not stated)	0%
COCCN1CCC2(C1)CN(C)c1ccc(C(=O)Nc3ccc(F)cc3)cc12 (configuration not stated)	?
Cc1ccc(C)c(CN2CCn3nnc(-c4nc(-c5ccsc5)no4)c3C2=O)c1	7%
Cc1cccc(C(=O)N2CC[C@@](C)(O)[C@@H](Cc3ccccc3)C2)c1C	3%
CN1Cc2ccc(Nc3ccccc3)nc2C(C)(C(=O)NCCc2cnc[nH]2)C1 (configuration not stated)	-9%[70.6 µM]
FC(F)(F)c1ccc2c(c1)nc1n2[C@@H](CNCc2c[nH]c3ccccc23)COC1	-17%[70.6 µM]
CCNC(=O)N1CCC2(CC1)CN(c1ccccc1)C2=O	8%
c1cnc(-c2nc(C3CCNC3)no2)cn1 (configuration not stated)	4%
O=C(NCc1ccco1)C1CCc2nc(N3CCN(C(=O)C4CCC4)CC3)sc2C1 (configuration not stated)	-10%
COc1ccc(CNC(=O)c2ccc3c(c2)N=C(C)c2c(C)ccc(C)c2S3)cc1	-16%
CCc1nc(-c2ccc(OC3CCN(C(=O)Cc4c[nH]c5ccccc45)C3)cc2)no1 (configuration not stated)	?
O=C(Cn1nc2n(c1=O)CCCC2)NCc1ccccc1Br	3%
CNC(=O)[C@@H]1CNC[C@H]1c1nc(COC)no1	-2%
CN1C[C@@H](NS(C)(=O)=O)C[C@H]1c1nc(-c2ccc(Cl)cc2)no1	4%[70.6 µM]
COCc1nc(CCNC(=O)Cc2c(C)noc2C)no1	0%
Cc1cccc(-c2cccc(NC(=O)C3CCCN(Cc4cnc(C)nc4)C3)c2)c1 (configuration not stated)	1%
COC(=O)[C@H]1CN(S(C)(=O)=O)CCN1S(C)(=O)=O	4%[70.6 µM]
Cc1ccc(CN2CCC(C3CCN(S(C)(=O)=O)CC3)C2)nc1 (configuration not stated)	1%
COc1ccc(-c2nc(C(C)C)nc3c2CCN(C(=O)c2ccccc2)CC3)cc1	4%
CC(C)c1cc(C(=O)N2CCn3nc(C(=O)Nc4ccccc4)cc3C2)n[nH]1	13µM*
Cn1nc(C2CCNCC2)n(-c2ccccc2)c1=O	7%
O=C(c1cn(C2CNC2)nn1)N1CCOCC1	0%

Fetched by compound from the entries so far, 3 records:
SMILES	NPR1 antag
COc1ccc(-c2nc(C(C)C)nc3c2CCN(C(=O)c2ccccc2)CC3)cc1	4%
O=C(c1cn(C2CNC2)nn1)N1CCOCC1	0%
Cc1ccc(CN2CCC(C3CCN(S(C)(=O)=O)CC3)C2)nc1 (configuration not stated)	1%

(listing goes on)
SMILES	NPR1 antag
COc1ccc(-c2ccccc2NC(=O)C2CCCN(Cc3ccn[nH]3)C2)cc1 (configuration not stated)	-1%
COc1ccc(CNC(=O)C[C@@H]2[C@H](O)CCC3[C@](C)(CO)[C@H](OC(=O)NC(C)C)CC[C@]32C)cc1 (some centres not stated)	5%
CCc1noc(-c2cccn3c(CNC(=O)c4ccc(F)cc4Cl)nnc23)n1	1%
O=C(Cn1ccn2nc3c(c2c1=O)CCCC3)NCc1cccs1	1%
COc1ccccc1N1CCN(C(=O)C(N)c2c(C)n[nH]c2C)CC1(C)C (configuration not stated)	-1%
CN(c1ccccc1)c1ccc2nnc(-c3ccccn3)n2n1	2%[70.6 µM]
COCc1nc2nc(-c3ccccc3)c(-c3cccc([S+](C)(=O)[O-])c3)cc2n1C	2%[70.6 µM]
COC[C@@H]1CN(Cc2cc(OC)cc(OC)c2)C[C@H]1C(=O)N(C)C	-1%
COCCNC(=O)C1CC(=O)N(c2n[nH]c3ccccc23)C1 (configuration not stated)	1%
CC1(c2ccccc2)N(Cc2ccccc2F)C(=O)OC12CCN(Cc1cccnc1N)CC2 (configuration not stated)	-13%

Part of the list above in order of length of the SMILES, ascending.
SMILES	NPR1 antag
O=C(Cn1ccn2nc3c(c2c1=O)CCCC3)NCc1cccs1	1%
COCCNC(=O)C1CC(=O)N(c2n[nH]c3ccccc23)C1 (configuration not stated)	1%
COc1ccc(CNC(=O)C[C@@H]2[C@H](O)CCC3[C@](C)(CO)[C@H](OC(=O)NC(C)C)CC[C@]32C)cc1 (some centres not stated)	5%

(further entries)
SMILES	NPR1 antag
Cc1cc(C)n(CCC(=O)N[C@@H]2CN(Cc3ccncc3)C[C@H]2CN(C)C)n1	11%
O=C1Nc2ccc(-c3ccc4c(c3)OCO4)cc2C(=O)N2CCN(C(=O)c3cccnc3)C[C@H]12	1%
COc1c[nH]c(CN2CCCC(CCc3ccccc3C)C2)cc1=O (configuration not stated)	0%
Cc1ccccc1NC(=O)N1CCC(CCNC(=O)Cc2ccccc2F)CC1	1%
CCOc1ccc(C(=O)N[C@@H]2CN(C)C[C@H]2CN(C)C)cc1	2%
COCCC1(NS(C)(=O)=O)CCN(C(=O)NCC(C)C)CC1	-2%
O=C(Cc1cnc2ccccn12)N[C@@H]1CCOC[C@H]1Oc1ccccn1	18%
COc1ccc(-c2ccc3ncc(Nc4ccc(OC)c(OC)c4)n3n2)cn1	-15%[70.6 µM]
Cc1nnc(-c2cc(-c3cccc(OC(F)(F)F)c3)ccn2)n1CCN1CCOCC1	4%[70.6 µM]
CC(=O)N1C[C@@H](CN(C)C)[C@H](NS(=O)(=O)c2cccc(C#N)c2)C1	6%
Cc1noc(-c2cn(C3CCN(C(=O)c4cccc(F)c4)CC3)nn2)n1	-8%
COCCN1CCN(C[C@@H]2C=C(C)[C@H](Cc3nnc(-c4ccc(N(C)C)cc4)o3)C[C@H]2C(C)C)CC1	2%
Cc1ccc(S(=O)(=O)N2CCN(C3CCN(CCc4ccccc4)C3=O)CC2)cc1C (configuration not stated)	-13%
Cc1ncc2n1C(=O)N(C1CCN(Cc3ccsc3)CC1)C2	15%&-1%[70.6 µM]
COc1ccc2[nH]c3c(c2c1)CCNC31CCN(C(=O)c2ccc(OC)nc2OC)CC1	3%
CC(C)c1nc2nccc(-c3ccccc3)n2n1	-2%
Cc1cccc(OCCc2noc(C3CCCN3C(=O)c3cn(C)cn3)n2)c1 (configuration not stated)	11%
COc1cc(NC(=S)N[C@H]2CO[C@H]3[C@@H]2OC[C@@H]3n2nnnc2Oc2cccc(N3CCOCC3)c2)cc(OC)c1	5%
COc1ccccc1OCc1cc(C(=O)N2CCC(C(C)(C)O)CC2)n[nH]1	-8%
Cc1cc(C)n(CC(=O)N2CCCC(C)(Cc3ccc4c(c3)OCO4)C2)c(=O)n1 (configuration not stated)	-2%
COc1ccc(C(=O)NC2CCN(c3cc(-c4ccc(Cl)cc4)[nH]n3)C2)c(C)c1 (configuration not stated)	-16%
CCN1CC(c2ccccc2)CC2(CCN(C(=O)CCn3cccn3)CC2)C1 (configuration not stated)	9%
COCc1nnc2n1CCC(NC(=O)C1(c3ccccc3)CCCC1)CC2 (configuration not stated)	-1%
O=C(CN1CCC2(CC1)CC(c1ccccc1)C(=O)N2)NCC1CCCCC1 (configuration not stated)	6%
CN(Cc1ccsc1)C(=O)c1ccc(C#CC(C)(C)O)o1	-16%
CCC1(N2CCN(S(=O)(=O)c3ccc(F)c(C)c3)CC2)CCN(S(C)(=O)=O)C1 (configuration not stated)	1%
Cn1cc(CNC(=O)C[C@@H]2C[C@H]3O[C@H](CNC4CCCC4)[C@@H](O)[C@H]3O2)cn1	-6%[70.6 µM]
Cc1cc(-c2cc3c(cn2)CN(CC2CCOCC2)CCN3)ccn1	0%[70.6 µM]
CCOc1ccccc1CN1CCCN(Cc2ccncc2)C(c2ccccc2)CC(=O)NCC1 (configuration not stated)	-19%
